Source: PubChem BioAssay
YjeE inh – displaces an ADP probe from E. coli YjeE (TsaE); P0AF67; purified YjeE, fluorescence polarisation of a bound ADP probe; Potency, µM; 71,000 tested, 0.05% active; active = well fitted falling curve; inconclusive = weaker or top-dose-only fall, or a rising curve; inactive = flat or poorly fitted curve;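 note: top concentration of the series not given in the record; excess ADP was the control for the full effect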
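Purified YjeE (10 uM) with BODIPY Texas Red-labeled ADP probe (2 uM); compounds pin-transferred, 15 min at room temperature. Binding inhibition read as decreased fluorescence polarization; ADP titration as control.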
PK Bst – alters activity of Bacillus stearothermophilus pyruvate kinase; partly purified Bacillus stearothermophilus pyruvate kinase, luminescence ATP production; ribose 5-phosphate activator present at AC10; Potency, µM; 51,000 tested, 1.2% active; AID 361; in the data active means potency below about 11 µM; inconclusive means mostly about 12 µM to 25 µM; inactive means weaker than that;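 the screen sought inhibitors and activators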;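 note: potency is the fitted concentration of half-maximal effect; scaled between full activation by ribose 5 phosphate and full inhibition by luteolin; about four in five hits inhibit and the cells do not say which; series up to 57 µM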
Numbers without * were called inactive; i = inactive; · = not tested or not shown; & = joins results of further samples. Some of the compounds tested; count on the stated rates, not on these rows.

nr | YjeE inh | PK Bst | molecule
1 | i | · | CC(=O)O[C@]1(C(C)=O)CC[C@@H]2[C@@H]3C=C(Cl)C4=CC(=O)[C@H]5C[C@@H]5[C@]4(C)[C@H]3CC[C@]21C
2 | i | · | COc1cc(N)c(Cl)cc1C(=O)N[C@H]1CCN(CCCOc2ccc(F)cc2)C[C@@H]1OC
3 | i | · | O=c1oc2c(O)c(O)cc3c(=O)oc4c(O)c(O)cc1c4c23
4 | i | · | Cc1ccc(=O)n(-c2ccccc2)c1
5 | i | · | Oc1cc2c(cc1O)[C@H]1c3ccc(O)c(O)c3OC[C@@]1(O)C2
6 | i | · | NC(N)=O
7 | i | · | C#C[C@@]1(O)CC[C@@H]2[C@@H]3CCC4=CC(=O)CC[C@@H]4[C@H]3CC[C@]21CC
8 | · | >26 | CCCCCC(=O)O[C@]1(C(C)=O)CC[C@H]2[C@@H]3CCC4=CC(=O)CC[C@]4(C)[C@H]3CC[C@@]21C
9 | i | >26 | CCn1cc(C(=O)O)c(=O)c2cnc(N3CCNCC3)nc21
10 | i | · | CC(=O)OCC(=O)[C@@]1(O)CC[C@@H]2[C@H]3CCC4=CC(=O)C=C[C@]4(C)[C@]3(F)[C@@H](O)C[C@@]21C
11 | i | · | COc1nccc(-c2c(-c3ccc(F)cc3)ncn2C2CCC(O)CC2)n1 (stereo unspecified)
12 | i | >11 | O=C(O)c1cccnc1Nc1cccc(C(F)(F)F)c1
13 | i | >57 | CC(=O)CCCCn1c(=O)c2c(ncn2C)n(C)c1=O
14 | i | · | C[C@@H](C(=O)O)c1ccc(C(=O)c2cccs2)cc1
15 | i | · | NOCC(=O)O
16 | i | · | C[C@H]1[C@H](C)CC[C@@]2(C(=O)O)CC[C@]3(C)C(=CC[C@H]4[C@@]5(C)C[C@@H](O)[C@H](O)[C@@](C)(CO)[C@@H]5CC[C@@]43C)[C@@H]12
17 | i | · | CCCCNc1ccc(C(=O)OCCOCCOCCOCCOCCOCCOCCOCCOCCOC)cc1
18 | i | · | CN=C(NC#N)Nc1ccc(C2=NNC(=O)C[C@@H]2C)cc1
19 | · | >26 | CN(C)CCCC1(c2ccc(F)cc2)OCc2cc(C#N)ccc21 (stereo unspecified)
20 | i | · | OC[C@@H](O)CN1CCN(c2ccccc2)CC1

Among those listed so far, five have nitrogen in an aromatic ring.
nr | YjeE inh | PK Bst | molecule
4 | i | · | Cc1ccc(=O)n(-c2ccccc2)c1
9 | i | >26 | CCn1cc(C(=O)O)c(=O)c2cnc(N3CCNCC3)nc21
11 | i | · | COc1nccc(-c2c(-c3ccc(F)cc3)ncn2C2CCC(O)CC2)n1 (stereo unspecified)
12 | i | >11 | O=C(O)c1cccnc1Nc1cccc(C(F)(F)F)c1
13 | i | >57 | CC(=O)CCCCn1c(=O)c2c(ncn2C)n(C)c1=O

Back to the main list, repeating the 7 entries before the break.
nr | YjeE inh | PK Bst | molecule
14 | i | · | C[C@@H](C(=O)O)c1ccc(C(=O)c2cccs2)cc1
15 | i | · | NOCC(=O)O
16 | i | · | C[C@H]1[C@H](C)CC[C@@]2(C(=O)O)CC[C@]3(C)C(=CC[C@H]4[C@@]5(C)C[C@@H](O)[C@H](O)[C@@](C)(CO)[C@@H]5CC[C@@]43C)[C@@H]12
17 | i | · | CCCCNc1ccc(C(=O)OCCOCCOCCOCCOCCOCCOCCOCCOCCOC)cc1
18 | i | · | CN=C(NC#N)Nc1ccc(C2=NNC(=O)C[C@@H]2C)cc1
19 | · | >26 | CN(C)CCCC1(c2ccc(F)cc2)OCc2cc(C#N)ccc21 (stereo unspecified)
20 | i | · | OC[C@@H](O)CN1CCN(c2ccccc2)CC1
21 | i | >57&>26&>26 | Cc1ccc(N(CC2=NCCN2)c2cccc(O)c2)cc1
22 | i | >57&>26 | CNCCCN1c2ccccc2CCc2ccccc21
23 | i | >26 | C1COC(NC(C2CC2)C2CC2)=N1
24 | i | · | C[N+]1(C)CCC(=C(c2ccccc2)c2ccccc2)CC1
25 | i | · | CN1CCO[C@H](c2ccccc2)c2ccccc2C1
26 | i | · | COc1cc2ncnc(Nc3cccc(Cl)c3)c2cc1OC
27 | i | · | C1CCC(C(C[C@@H]2CCCCN2)C2CCCCC2)CC1
28 | i | · | CN[C@H]1[C@@H](O)[C@@H](NC)[C@@H]2O[C@@]3(O)C(=O)C[C@@H](C)O[C@H]3O[C@H]2[C@H]1O
29 | · | >26 | CN1CCCN=C1COC(=O)C(O)(c1ccccc1)C1CCCCC1 (stereo unspecified)
30 | i | · | Oc1ccc(/C=C\c2cc(O)cc(O)c2)cc1
31 | i | · | N[C@@H](Cc1c[nH]c2ccc(O)cc12)C(=O)O
32 | i | · | N#Cc1ccc(C(c2ccc(C#N)cc2)n2cncn2)cc1
33 | · | >26 | CC1Cc2ccccc2N1NC(=O)c1ccc(Cl)c(S(N)(=O)=O)c1 (stereo unspecified)
34 | · | >11 | CCC(NC(C)C)C(O)c1ccc(O)c2[nH]c(=O)ccc12 (stereo unspecified)
35 | i | · | CCCCNc1ccc(C(=O)OCCN(C)C)cc1
36 | i | · | O=C(O)CCC(=O)c1ccc(-c2ccccc2)cc1
37 | i | · | CC[C@H](NC(C)C)[C@H](O)c1ccc(O)c2[nH]c(=O)ccc12
38 | i | · | C[C@H](N[C@@H](C)COc1ccccc1)[C@H](O)c1ccc(O)cc1
39 | i | · | O=C(c1ccccc1)c1ccc2n1CC[C@H]2C(=O)O
40 | · | >26 | COc1ccc(C2CNC(=O)C2)cc1OC1CCCC1 (stereo unspecified)
41 | i | · | CCN(CC)CCOC(=O)c1ccc(N)cc1

Another view of 2 compounds above:
9. CCn1cc(C(=O)O)c(=O)c2cnc(N3CCNCC3)nc21
  YjeE inh: i
  PK Bst: >26
27. C1CCC(C(C[C@@H]2CCCCN2)C2CCCCC2)CC1
  YjeE inh: i
  PK Bst: ·
